# VDR inh: Inhibitors of the vitamin D receptor (VDR): qHTS; Vitamin D3 receptor (Homo sapiens), P11473; VDR-SRC2-3 peptide fluorescence polarization, 2 h; Potency, µM, inactives show max response, negative = inhibition, most hits filed as inhibitors; 400,000 tested, 0.93% active; active means well fitted inhibition curve with a large enough effect; inconclusive means small, poorly fitted or top-dose-only effect, or another doubt; inactive means no such curve, though single readings can be large or run the other way; further: series mostly up to about 120 µM
# Target sequence (P11473 whole entry, looked up): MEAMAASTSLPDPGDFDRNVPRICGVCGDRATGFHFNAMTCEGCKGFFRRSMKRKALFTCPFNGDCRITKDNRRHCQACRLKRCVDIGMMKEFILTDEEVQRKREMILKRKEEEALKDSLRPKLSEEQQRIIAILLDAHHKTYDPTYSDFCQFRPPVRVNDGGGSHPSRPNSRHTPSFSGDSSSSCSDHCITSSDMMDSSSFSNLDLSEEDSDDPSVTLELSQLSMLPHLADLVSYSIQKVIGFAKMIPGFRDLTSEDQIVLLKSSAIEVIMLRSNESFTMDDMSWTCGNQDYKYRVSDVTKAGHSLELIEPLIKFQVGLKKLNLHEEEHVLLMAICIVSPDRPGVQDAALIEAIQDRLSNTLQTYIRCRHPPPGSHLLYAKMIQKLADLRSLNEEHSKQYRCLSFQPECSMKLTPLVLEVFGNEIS
#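 FP read-out; VDR + SRC2-3 coactivator peptide; 23 nl compound by pintool; 2 h RT incubation; reagents held at 4 deg C, protected from light.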
# * hit, by the source's call; ? = inconclusive; & = joins results of further samples. On the % scale 0 is the no-effect control and ±100 the full control effect; potency means the concentration at half of the fitted maximal effect.
SMILES,VDR inh
OCC1(CCc2ccccc2)CCCN(CCCC(F)(F)F)C1 (centres undefined),19%
Cc1ccc(-n2c(C)cc(=O)cc2C)c(C)c1,-17%
O=C(Nc1ccc(F)cc1F)c1ccco1,-1%
O=C(N/N=C/c1cccc([N+](=O)[O-])c1)C1CC1c1ccccc1 (centres undefined),-17%
Cc1ccc(C)c(SCC(=O)NC(=O)NCc2ccccc2)c1,-11%
COc1ccc(CN2CCC(=O)N([C@H](CO)Cc3ccccc3)CC2)cc1OC,22%
Cc1c(C(=O)NN)nc2ccccn12,-16%
Cc1ccc(C2(O)C(=O)c3ccccc3C2=O)c(O)c1C,24%
Cc1c(CCC(=O)O)c(=O)oc2cc(O)ccc12,8%
CCc1c(C)nc(SCC(=O)N2CCCCC2C)[nH]c1=O (centres undefined),0%
Cc1ccc(-n2ncc3c2CC(C)(C)CC3NC(=O)c2ccccn2)cc1 (centres undefined),11%
O=C(CC1Nc2ccccc2NC1=O)NC1CCCCC1 (centres undefined),7%
COc1ccccc1N1CCN(C(=O)Cn2ncc3c(=O)oc4ccc(C)cc4c32)CC1,?
O=C(NCCN1CCN(S(=O)(=O)c2ccc([N+](=O)[O-])cc2)CC1)C(=O)Nc1ccccc1,3%
C[C@@]12C(=O)N(Cc3ccco3)CC(=O)N1[C@H]1c3cc(Cl)ccc3OC[C@@H]1[C@@H]2c1ccccc1,-29%
Cc1nc(NCCCn2ccnc2)c2oc3ccccc3c2n1,2%
COc1ccc(NS(=O)(=O)c2ccc(-c3cnc(C4CC4)o3)cc2)cc1OC,-11%
CC(=O)c1ccc(S(=O)(=O)N2CCn3cccc3C2c2ccc(F)c(F)c2)cc1 (centres undefined),7%
COCCNC(=O)C(C)OC(=O)C1=Cc2ccccc2OC1 (centres undefined),-22%
c1cnc(SCCCOc2ccc3ccccc3c2)nc1,8%
COc1ccc(C(=O)N2CCC(C(N)=O)CC2)cc1S(=O)(=O)N1CCCC1,5%
CCCCNC(=O)CNC(=O)c1nn(-c2ccc(OC)c(Cl)c2)c(=O)c2ccccc12,-4%
CC(Oc1ccccc1)C(=O)Nc1cccc(-c2nc3ccccc3[nH]2)c1 (centres undefined),3%
O=C(/C=C/c1ccc(Cl)cc1)NC1CC2CCC1C2 (centres undefined),-1%
CN(Cc1ccccc1)C(=O)c1cc2ccccc2o1,-17%
CC(C)c1ccccc1NC(=S)NCc1ccncc1,-11%
O=C(NC1CS(=O)(=O)CC1NCc1ccccc1)c1ccccc1 (centres undefined),15%
CC(C)[C@H](NS(=O)(=O)c1ccccc1)C(=O)OCC(=O)Nc1ccc2c(c1)OCO2,17%
O=C(COC(=O)/C=C/c1cccs1)Nc1ccc(Cl)cc1F,3%
CCN(CC)CCN1C(=O)C(O)=C(C(C)=O)C1c1ccccc1[N+](=O)[O-] (centres undefined),-3%
CCC(=O)N1c2ccc(S(=O)(=O)N3CCN(c4ccc([N+](=O)[O-])cc4)CC3)cc2CC1C (centres undefined),-19%
N#Cc1ccccc1NC(=S)NC(=O)C1CCC1,18%
O=c1/c(=C/c2ccc(O)c([N+](=O)[O-])c2)sc2nc3ccccc3n12,17%
Cc1c(C(=O)N2CCCCC2C)sc2nc3n(c(=O)c12)CCC3 (centres undefined),-21%
Fc1ccc(-c2ccc(/C=N/n3cnnc3)o2)cc1,-23%
Cc1cccc(C)c1OCCn1nc(C(=O)O)c2ccccc2c1=O,-7%
COc1ccc(OC)c(NC(=O)COC(=O)c2c3c(nc4ccccc24)CCCC3)c1,-3%
CCC(C)(C)NC(=O)c1ccc2c(c1)OCCO2,-25%
CCN(CC)S(=O)(=O)c1ccc(NC(=O)[C@@H](NC(=O)c2cc(OC)cc(OC)c2)C(C)C)cc1,6%
O=C(NCCSCc1ccco1)Nc1cc(Cl)cc(Cl)c1,21%
O=C(c1ccc2c(c1)OCCO2)C1CCN(C(=O)c2ccc(F)cc2)CC1,18%
CCCN1CCN(S(=O)(=O)c2c(C)[nH]c(C)c2C(=O)N2CCCCC2)CC1,-18%
COc1ccc(S(=O)(=O)n2ccc(C(C)Oc3ccc(-c4ccccc4)c(F)c3)n2)cc1 (centres undefined),0%
Cc1c(NS(=O)(=O)c2cc(NC(=O)CCN3CCCC(C)C3)ccc2Cl)c(=O)n(-c2ccccc2)n1C (centres undefined),12%
C(=N\Nc1ncnc2sc3c(c12)CCC3)/c1ccncc1,-7%
COc1ccc(-c2onc(C)c2C)cc1S(=O)(=O)NCCc1ccccc1,12%
O=C(Nc1nc(-c2ccccn2)cs1)c1ccccc1-n1cnnn1,?
CNC(=O)c1ccc(-c2nc(-c3ccccc3)cs2)cc1,5%
COc1ccccc1-n1nnnc1SCc1ccccc1,-9%
Cc1ccc(N2Cc3ccccc3OC(C)C2=O)cc1 (centres undefined),-11%
Oc1ccc(-c2n[nH]c(=S)n2-c2ccc3c(c2)OCCO3)cc1,-14%
Cc1cc(NC(=O)Nc2ccc(F)c(Cl)c2)no1,-2%
CC(=O)NC1CCN(CC(=O)Nc2cccc([N+](=O)[O-])c2)CC1,13%
COCCn1c(C)cc(/C=C2\NC(=S)N(C)C2=O)c1C,-5%
CCOC(=O)N1CCN(S(=O)(=O)c2ccc(C(=O)NNc3nc4ccc(Cl)cc4s3)cc2)CC1,-11%
Cc1ccc(-c2noc(CN3CCN(c4ccccc4F)CC3)n2)cc1,-11%
COc1cc2c(cc1NC(=O)COC(=O)CNS(=O)(=O)c1ccc(C)cc1)oc1ccccc12,-22%
O=C(NCc1ccccc1)N1CCC(c2nc3ccccc3[nH]2)CC1,13%
Cc1ccc(-c2ccc(OCC(=O)N3CCOCC3)cc2)cc1,-1%
CC(CN1CCN(c2ccccc2)CC1)c1ccccc1 (centres undefined),11%
# (more compounds)
SMILES,VDR inh
COC(c1ccccc1)(c1ccccc1)C(Oc1nccc(C)n1)C(=O)O (centres undefined),-7%
Cc1ccc(CN(C(=O)c2ccccc2[N+](=O)[O-])c2ccccn2)cc1,8%
Cc1cccc(NC(=O)c2ccccc2[N+](=O)[O-])n1,8%
CN(CCN1CCOCC1)C(=O)CC1C(=O)NCCN1Cc1ccccc1F (centres undefined),-2%
NCCNC(=O)Cc1ccc(NC(=O)Cc2ccc(Nc3ncnc4c3ncn4[C@@H]3O[C@H](CO)[C@@H](O)[C@H]3O)cc2)cc1,8%&9%
CCN(C(=O)c1cc2cc3ccc(OC)cc3nc2o1)c1cccc(C)c1,-25%
Cc1ccc(C(=O)OCC(=O)c2ccc(Cl)s2)s1,-4%
CNC(=O)c1ccc(Nc2nnc(-c3ccc(C)c(S(=O)(=O)N(C)C)c3)c3ccccc23)cc1,-8%
O=C(/C=C/c1ccc(O)c(O)c1)c1ccccc1O,13%
COc1ccc(NC(=O)c2cccc(S(=O)(=O)N3CCOCC3)c2)cn1,-4%
O=C(NCC1CCCO1)c1cnc(Cl)c(Cl)c1 (centres undefined),16%
CC(NS(=O)(=O)c1ccc([N+](=O)[O-])cc1)C(c1cccs1)N1CCOCC1 (centres undefined),-9%
CN1CCN(S(=O)(=O)c2ccc(NC(=O)c3cccc(F)c3)cc2)CC1,-6%
Cc1c(NC(=S)Nc2ccccc2C(F)(F)F)cccc1[N+](=O)[O-],-19%
Cc1ccccc1C(=O)N1CCC(C(=O)N2CCCc3ccccc32)CC1,-3%
COc1ccc(/C=C2/SC(=S)NC2=O)cc1OCc1ccccc1,-7%
CC1CC(C)CN(C(=O)COC(=O)c2cc(S(=O)(=O)N3CCOCC3)ccc2F)C1 (centres undefined),?
Cc1n[nH]c(=O)nc1N/N=C/c1ccc(O)c([N+](=O)[O-])c1,-14%
Fc1ccc(-c2csc(N3CCSCC3)n2)cc1,-9%
Cc1ccc(Cl)cc1N1CCN(Cc2nc3ccsc3c(=O)[nH]2)CC1,3%
CCc1ccccc1NC(=O)CSc1nnc(CC)c(CC)n1,14%
O=C(c1cc(=O)[nH]c2ccccc12)N1CCN(c2ccc([N+](=O)[O-])cc2)CC1,3%
Cc1nn(CCO)c2c1C(=O)CCC2,-9%
CCCCn1c(=NC(=O)c2c(-c3c(F)cccc3Cl)noc2C)c(C(=O)OCC)cc2c(=O)n3ccccc3nc21,4%
COC(=O)COc1ccc(S(=O)(=O)Nc2ccc(C(N)=O)cc2)cc1C,-2%
Cc1ccc(NC(=O)CN2C(=O)N/C(=C/c3ccc(N4CCOCC4)cc3)C2=O)cc1,-12%
CCc1ccc(N(CC(=O)NC2CC2)S(=O)(=O)c2ccc(C)cc2)cc1,2%
O=S(=O)(c1cnc(Cl)c(Br)c1)N1CCc2ccccc21,-9%
CN(C)N1C(N)=C(C#N)C(c2ccccc2)C2=C1CC(C)(C)CC2=O (centres undefined),?
N#C/C(=C\c1ccc(-c2cccc([N+](=O)[O-])c2)o1)C(=O)NCCN1CCOCC1,-11%
COCCn1ccc2c(OCC(=O)Nc3cccc(NC(C)=O)c3)cccc2c1=O,5%
CC(C)(C)c1ccc(S(=O)(=O)NCCc2ccncc2)cc1,-8%
c1ccc(CN2CCC(=NNc3nc4ccccc4[nH]3)CC2)cc1,-6%
CCC(C)NC(=O)CSc1nnc(-c2cc(OC)c(OC)c(OC)c2)c(-c2cc(OC)c(OC)c(OC)c2)n1 (centres undefined),4%
Cc1ccc(CN(C(=O)c2cccs2)C2CCS(=O)(=O)C2)cc1 (centres undefined),-5%
CN(C)S(=O)(=O)N1CCc2ccc(NC(=O)C3CCCO3)cc2C1 (centres undefined),-4%
Cc1ccccc1Cn1nc(C)c(NC(=O)c2cc(-c3ccco3)on2)c1C,3%
Fc1ccc(N2CCN(C(=S)NCc3ccco3)CC2)cc1,-14%
CCOc1ccc2[nH]c(=O)c(CN(CCO)Cc3nnnn3CCc3ccccc3)cc2c1,-5%
CC(=O)OCCBr,2%
CC(=O)N1CCc2c(sc(NC(=O)Cc3ccc(C)cc3C)c2C#N)C1,?
CCNC(=O)NC(=O)CSc1ccccc1F,-15%
CCOc1ccc(NC(=O)NCCCn2c(C)nc3cc(C)c(C)cc32)cc1,-11%
O=C(Cn1cc(C(=O)c2ccco2)c2ccccc21)Nc1ccccc1C(F)(F)F,-6%
CC(C)[N+](C)(C)CC#CC(O)(c1ccccc1)c1ccccc1,11%
Cc1ccc(N2CC(C(N)=O)CC2=O)cc1C (centres undefined),13%
O=C(NCCCn1ccnc1)NC(C(F)(F)F)C(F)(F)F,8%
Cc1nn(-c2ccccc2C(F)(F)F)c(=O)c2noc(C)c12,0%
Cc1ccc(NC(=O)CSCC(=O)Nc2cccc3ncccc23)cc1,14%
Cc1ccc(C)c(S(=O)(=O)N2CCN(C(=O)Cn3cnc4c3c(=O)n(C)c(=O)n4C)CC2)c1,9%
Cc1nn(C)cc1S(=O)(=O)NCc1ccccc1Cl,12%
Cc1ccc(NS(=O)(=O)c2ccc3c(c2)C(=O)c2ccccc2C3=O)c(C)c1,-3%
COc1ccc(C(=O)N(C)CC2CCN(CCc3cccc(C(F)(F)F)c3)CC2)cc1C,-2%
CCOc1ccc(NC(=S)NC(=O)C2CCCC2)cc1,-5%
O=C(Cc1ccccc1)NNS(=O)(=O)c1ccccc1[N+](=O)[O-],2%
FC(F)(F)c1ccc(C2=Nc3ccccc3NC(c3cccs3)=N2)cc1,1%
Cc1ccc(S(=O)(=O)N2CCN(C(=O)c3n[nH]c(=O)c4ccccc34)CC2)c(C)c1,-4%
Cc1cc(C)n(-c2nc(-c3ccc(Cl)cc3)cs2)n1,1%
CCCCCc1c(C)nc(N2CCc3ccccc32)[nH]c1=O,4%
COc1ccccc1NS(=O)(=O)c1cccc(N=C2N=C(N)c3ccccc32)c1,-4%
# Continued:
SMILES,VDR inh
COc1cccc(NC(=O)c2nc(S(C)(=O)=O)ncc2Cl)c1,20µM*
CCN(CC)CCCNC(=O)c1cc(-c2ccc(OC)c(OC)c2)on1,-8%
CCC(C)NC(=O)CSc1nc2cc3c(cc2c(=O)n1Cc1ccc(C(=O)NCCc2ccc(OC)c(OC)c2)cc1)OCO3 (centres undefined),?
O=C(Cc1ccc(Cl)cc1)NNc1c(F)c(F)cc(F)c1F,-16%
Cc1cc2oc(C(=O)Nc3ccc(S(=O)(=O)Nc4ncccn4)cc3)cc(=O)c2cc1C,5%

# Grouped by structure: those above containing a nitro group on carbon.
SMILES,VDR inh
O=C(N/N=C/c1cccc([N+](=O)[O-])c1)C1CC1c1ccccc1 (centres undefined),-17%
O=C(NCCN1CCN(S(=O)(=O)c2ccc([N+](=O)[O-])cc2)CC1)C(=O)Nc1ccccc1,3%
CCN(CC)CCN1C(=O)C(O)=C(C(C)=O)C1c1ccccc1[N+](=O)[O-] (centres undefined),-3%
CCC(=O)N1c2ccc(S(=O)(=O)N3CCN(c4ccc([N+](=O)[O-])cc4)CC3)cc2CC1C (centres undefined),-19%
O=c1/c(=C/c2ccc(O)c([N+](=O)[O-])c2)sc2nc3ccccc3n12,17%
CC(=O)NC1CCN(CC(=O)Nc2cccc([N+](=O)[O-])c2)CC1,13%
Cc1ccc(CN(C(=O)c2ccccc2[N+](=O)[O-])c2ccccn2)cc1,8%
Cc1cccc(NC(=O)c2ccccc2[N+](=O)[O-])n1,8%
CC(NS(=O)(=O)c1ccc([N+](=O)[O-])cc1)C(c1cccs1)N1CCOCC1 (centres undefined),-9%
Cc1c(NC(=S)Nc2ccccc2C(F)(F)F)cccc1[N+](=O)[O-],-19%
Cc1n[nH]c(=O)nc1N/N=C/c1ccc(O)c([N+](=O)[O-])c1,-14%
O=C(c1cc(=O)[nH]c2ccccc12)N1CCN(c2ccc([N+](=O)[O-])cc2)CC1,3%
N#C/C(=C\c1ccc(-c2cccc([N+](=O)[O-])c2)o1)C(=O)NCCN1CCOCC1,-11%
O=C(Cc1ccccc1)NNS(=O)(=O)c1ccccc1[N+](=O)[O-],2%

# These rows are one share of the data; the hit share may differ from the screen's.
